High-throughput results (PubChem BioAssay)
UCH37 inh – blocks the human deubiquitinase UCH37; hit rate 0.33% among 330,000; purified proteasome/UCH37, Ub-AMC cleavage fluorescence; AID 588478; inhibition, % (concentration not given with the values);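 active means mean of two replicates above 20%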;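 further: 0% = compound-free wells with enzyme and 100% = wells lacking proteasome; stock transfer was 100 nL into about 20 µL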
Target sequence (Q9Y5K5 whole entry, looked up): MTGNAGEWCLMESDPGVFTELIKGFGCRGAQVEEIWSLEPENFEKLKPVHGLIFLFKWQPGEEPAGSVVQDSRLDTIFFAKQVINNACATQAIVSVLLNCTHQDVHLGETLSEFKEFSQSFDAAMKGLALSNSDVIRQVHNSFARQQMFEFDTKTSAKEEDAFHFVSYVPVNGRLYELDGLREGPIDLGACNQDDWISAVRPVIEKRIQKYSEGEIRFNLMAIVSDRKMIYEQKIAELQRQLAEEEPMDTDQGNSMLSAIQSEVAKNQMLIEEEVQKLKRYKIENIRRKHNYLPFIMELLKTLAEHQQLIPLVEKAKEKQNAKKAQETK
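System: Proteasome-associated human UCH37 deubiquitinase; Input: 0.15 nM proteasome in added enzyme buffer; Also added: Ub-AMC substrate from 1 µM stock; Incubation: 30 min compound-proteasome preincubation then 25 min substrate reaction, room temperature; Detection: fluorescence, ex 355 nm, em 460 nm; Read-out: % inhibition of Ub-AMC cleavage fluorescence; Benchmarks: no-proteasome and no-compound wells.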
MLL AF4-AF9 inh – blocks AF4 peptide binding to human AF9 | P42568 | AlphaScreen, biotin-AF4 peptide binding to FLAG-AF9 | hit rate 0.47% among 350,000 | inhibition, % at 10 µM;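 active means every replicate reaching a set inhibition limit, whatever the replicate mean, cut at about 25% in these data; inconclusive means mean inhibition reaches that limit but some replicates miss it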;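 further: 0% = plate neutral control median and 100% = total signal loss; the record names both 10 and 1 µM as test concentration; the first replicate is given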
Target sequence (P42568 whole entry, looked up): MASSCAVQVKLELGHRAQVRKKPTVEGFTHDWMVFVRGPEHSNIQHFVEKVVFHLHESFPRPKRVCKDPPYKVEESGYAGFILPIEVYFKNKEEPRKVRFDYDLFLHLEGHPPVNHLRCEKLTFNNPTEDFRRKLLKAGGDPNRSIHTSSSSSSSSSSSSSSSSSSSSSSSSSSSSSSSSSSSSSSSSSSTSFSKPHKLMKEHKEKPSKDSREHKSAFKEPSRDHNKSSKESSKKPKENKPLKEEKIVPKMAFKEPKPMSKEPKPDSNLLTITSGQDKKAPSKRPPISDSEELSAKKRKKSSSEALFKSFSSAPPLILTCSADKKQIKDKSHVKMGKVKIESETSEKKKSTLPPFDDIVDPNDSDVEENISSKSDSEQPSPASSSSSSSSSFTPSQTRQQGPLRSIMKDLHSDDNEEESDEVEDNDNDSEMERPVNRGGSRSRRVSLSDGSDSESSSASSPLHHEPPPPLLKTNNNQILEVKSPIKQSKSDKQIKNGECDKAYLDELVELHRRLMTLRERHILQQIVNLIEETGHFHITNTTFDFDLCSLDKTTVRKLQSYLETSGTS
HNF4A DNA FP – change in binding of human HNF4 alpha to DNA; P41235; HNF4a-FITC DNA binding, fluorescence polarization, 1 h; activity change, % at 10 µM; hit rate 0.3% among 360,000; in the data active means activity change above about 30%, passing the limit was not always enough;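 further: controls were the assay level and a saturating level of protein; the project sought stronger binding though the title names inhibitors; some compounds called inactive have numbers as strong as hits; positive values seem to mean higher polarization but the record does not say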
RanGTP-Impb inh – inhibitors of RanGTP-importin-beta interaction, primary screen, biochemical, FRET, CFP-Ran, YFP-importin-beta, homogeneous. cell-free CFP-Ran/YFP-importin-beta FRET ratio. inhibition, % (test concentration not listed). hit rate 1.1% among 300,000. AID 2216;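 active means most replicates above 15%; inconclusive means exactly half above 15%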;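 further: 0% = DMSO wells and 100% = Ran loaded with GDP instead of GTP; wells of about 40 µL received 100 nL stock; the first replicate is given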
Ecoli growth – E. coli growth inhibition | AID 1053175 | hit rate 0.21% among 330,000 | OD600 absorbance (no concentration beside the values) | Escherichia coli growth, OD600, 23 h; hits give low values;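 active means OD600 absorbance below the run mean of sample wells minus 3.6 SD, in any replicate, cut at about 0.56 in these data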;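 further: stock transfer was 300 nL into about 60 µL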
FGF22 binding – FGF22 (human) thermal shift binding. recombinant FGF22 thermal shift, SYPRO orange fluorescence; percent of sucrose octasulfate shift, DMSO zero. hit rate 1.5% among 340,000. calls only at 9.99 µM;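 active means melting point raised past a set limit in the mean and every replicate; inconclusive means no clear call; three in four hits are not shown here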
Target sequence (Q9HCT0 whole entry, looked up): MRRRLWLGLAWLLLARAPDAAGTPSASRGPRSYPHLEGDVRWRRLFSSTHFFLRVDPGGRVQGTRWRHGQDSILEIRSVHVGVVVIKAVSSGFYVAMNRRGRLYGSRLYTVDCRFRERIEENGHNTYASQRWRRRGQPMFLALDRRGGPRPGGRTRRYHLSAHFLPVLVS
Vif TR-FRET – inhibitors of Vif binding to APOBEC3G peptide, primary screen, biochemical, TR-FRET, GST-Vif 1-94, biotin-A3G peptide, dose response retest (AID 1117319); TR-FRET GST-Vif / biotin-A3G peptide binding; higher % means a stronger effect; test concentration not given here; strong numbers were not always called active; inhibition, %; hits with a dose series show IC50 in µM; hit rate 0.57% among 260,000;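 active means above the screen mean plus three standard deviations and confirmed in dose response; inconclusive means results disagree or hit not tested in dose response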;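 further: Vif residues 1-94 fused to GST binding biotinylated APOBEC3G peptide 110-148; 0% = full assay without inhibitor and 100% = GST in place of GST-Vif; retest series ran down from 100 µM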
Active calls of the source: *. The list is partial; rates above refer to the full screens.

Screening CC(=O)N1c2ccc(S(=O)(=O)N3CCC(C(=O)Nc4cccc(C)c4)CC3)cc2CC1C (stereo not drawn) returned UCH37 inh -0.3, MLL AF4-AF9 inh 0.7, HNF4A DNA FP -2.5, RanGTP-Impb inh 2.0, Ecoli growth 0.66 and FGF22 binding inactive.
Screening CC(C)CC1C(=O)N(Cc2cn(CC3CCCCC3)nn2)CCS(=O)(=O)N1Cc1ccc(-c2ccncc2)cc1 (stereo not drawn) returned MLL AF4-AF9 inh 0.4, HNF4A DNA FP -1.1 and FGF22 binding inactive.
Screening O=C(Cn1nnc2ccccc21)NNC(=O)c1ccccc1 returned UCH37 inh 0.5, MLL AF4-AF9 inh -18, HNF4A DNA FP 1.7, RanGTP-Impb inh inconclusive, Ecoli growth 0.7 and FGF22 binding inactive.
For O=C(NC(=O)c1ccccc1)OCCN1C(=O)c2ccccc2C1=O the results were UCH37 inh 5.9, MLL AF4-AF9 inh -1.1, HNF4A DNA FP -0.1, RanGTP-Impb inh -1.8, Ecoli growth 0.71, FGF22 binding inactive and Vif TR-FRET 2%.
O=C(NCC(=O)N1CCN(c2ncccn2)CC1)c1cccs1 was read as UCH37 inh 0.2, HNF4A DNA FP 0.4, RanGTP-Impb inh 1.7, Ecoli growth 0.64 and Vif TR-FRET 3%.
Screening O=C(CSc1nc2ccccc2o1)NCC(=O)c1ccccc1 returned UCH37 inh 3.7, HNF4A DNA FP 4.5, RanGTP-Impb inh 1.8, Ecoli growth 0.67 and Vif TR-FRET 21%.
For Cc1ccnc2nc(C(=O)Nc3nc4ccccc4s3)nn12 the results were UCH37 inh 6.3, MLL AF4-AF9 inh -1.8, HNF4A DNA FP 0.8, RanGTP-Impb inh 1.1, Ecoli growth 0.86, FGF22 binding inactive and Vif TR-FRET -5%.
For O=C(/C=C/c1cccc([N+](=O)[O-])c1)c1ccc2c(c1)OCCO2 the results were UCH37 inh 3.2, MLL AF4-AF9 inh 0.6, HNF4A DNA FP 1.6, RanGTP-Impb inh -0.7, Ecoli growth 0.66, FGF22 binding inactive and Vif TR-FRET 18%.
`CCc1cc(=O)oc2cc(C)cc(OCC(=O)N3CCC(C(=O)O)CC3)c12` gave UCH37 inh -118, MLL AF4-AF9 inh -0.4, HNF4A DNA FP 0.4, RanGTP-Impb inh 0.9, Ecoli growth 0.71 and FGF22 binding inactive.
For CCn1c(C(=O)N2CCCC(C(=O)O)C2)cc2sccc21 (stereo not drawn) the results were UCH37 inh -0.1, HNF4A DNA FP -0.1, RanGTP-Impb inh -0.1, Ecoli growth 0.7 and Vif TR-FRET 23%.
For COc1ccc(OC)c(CCNC(=O)c2nn(C)c3c2CS(=O)(=O)c2ccccc2-3)c1 the results were UCH37 inh -1.9, MLL AF4-AF9 inh 2.0, HNF4A DNA FP 0.7, RanGTP-Impb inh -0.8, Ecoli growth 0.68, FGF22 binding inactive and Vif TR-FRET 8%.
Cn1c2ccccc2c2nnc(SCc3ccc4nonc4c3)nc21 was read as UCH37 inh -3.9, HNF4A DNA FP 5.2, RanGTP-Impb inh -2.7, Ecoli growth 0.71 and Vif TR-FRET 0%.
Screening O=C(NCC1COc2ccccc2O1)c1ccc(NC(=O)c2ccco2)cc1 (stereo not drawn) returned UCH37 inh -0.9, HNF4A DNA FP -0.3, RanGTP-Impb inh -2.6, Ecoli growth 0.7 and Vif TR-FRET -7%.
Screening CCn1ncc(Br)c1C(=O)Nc1ccc2c(c1)OCCO2 returned UCH37 inh 1.9, MLL AF4-AF9 inh 1.2, HNF4A DNA FP 0.6, RanGTP-Impb inh 4.8, Ecoli growth 0.69, FGF22 binding inactive and Vif TR-FRET 9%.
Screening O=C(Nc1ccc(N2CCOCC2)cc1)c1ccc(COc2ccccc2)cc1 returned UCH37 inh -8.2, MLL AF4-AF9 inh 1.2, HNF4A DNA FP 0.4, RanGTP-Impb inh 1.6, Ecoli growth 0.67 and FGF22 binding inactive.
Screening COC(=O)c1ccc(Oc2nc(Nc3ccc(C)c(C)c3)nc(N(C)C)n2)cc1 returned UCH37 inh 4.9, HNF4A DNA FP -1.2, RanGTP-Impb inh 0.1, Ecoli growth 0.68 and Vif TR-FRET 2%.
Cc1ccnc(SCC(N)=O)n1 was read as UCH37 inh 4.8, MLL AF4-AF9 inh -4.1, HNF4A DNA FP -9.8, RanGTP-Impb inh 5.4, Ecoli growth 0.7, FGF22 binding inactive and Vif TR-FRET 14%.
Screening Cc1ccc(C)c(Nc2cc(C)nc3ncnn23)c1 returned UCH37 inh 1.0, MLL AF4-AF9 inh -8.9, HNF4A DNA FP -3.7, RanGTP-Impb inh 1.4, Ecoli growth 0.67 and FGF22 binding inactive.
For COC(=O)c1c(C(=O)OC)c2ccccn2c1C(=O)c1ccc([N+](=O)[O-])cc1 the results were UCH37 inh 3.9, MLL AF4-AF9 inh 10, HNF4A DNA FP 0.5, RanGTP-Impb inh -1.5, Ecoli growth 0.62, FGF22 binding inactive and Vif TR-FRET -3%.
`COCCNC(=O)c1ccc(CN2CCC(Cc3ccccc3)CC2)cc1` gave UCH37 inh 2.5, MLL AF4-AF9 inh -1.4, HNF4A DNA FP 3.0, RanGTP-Impb inh 2.4, Ecoli growth 0.67, FGF22 binding inactive and Vif TR-FRET -3%.
Screening Cc1cccc(NC2(C(F)(F)F)N=C3SCCN3C2=O)n1 (stereo not drawn) returned UCH37 inh 1.4, HNF4A DNA FP -1.7, RanGTP-Impb inh -0.4, Ecoli growth 0.72 and Vif TR-FRET 2%.
Screening CC1CCC(N2CCN(S(=O)(=O)Cc3ccccc3)CC2)CC1 (stereo not drawn) returned UCH37 inh -1.6, MLL AF4-AF9 inh -3.4, HNF4A DNA FP 0.5, RanGTP-Impb inh -1.4, Ecoli growth 0.66 and FGF22 binding inactive.
For O=C(CSc1ccc(-c2nc3ccccc3[nH]2)cn1)Nc1ccc(S(=O)(=O)NC2CC2)cc1 the results were UCH37 inh -13, MLL AF4-AF9 inh 3.1, HNF4A DNA FP -1.0, RanGTP-Impb inh -1.5, Ecoli growth 0.66, FGF22 binding inactive and Vif TR-FRET 3%.
For Cn1cc(NC(=O)OCc2ccc(Cl)cc2)c(C(F)(F)F)n1 the results were UCH37 inh 2.1, MLL AF4-AF9 inh -1.5, HNF4A DNA FP -1.7, RanGTP-Impb inh -2.0, Ecoli growth 0.61 and FGF22 binding inactive.
Screening Cc1cc(C(=O)Nc2sc3c(c2C#N)CCC(C)C3)no1 (stereo not drawn) returned UCH37 inh -27, HNF4A DNA FP 2.7, Ecoli growth 0.72 and Vif TR-FRET 8%.
`COc1ccc(NC(=O)CSc2ccc(NC(C)=O)cc2)cc1S(=O)(=O)N1CCOCC1` gave UCH37 inh 3.7, MLL AF4-AF9 inh -0.6, HNF4A DNA FP 3.0, Ecoli growth 0.69, FGF22 binding inactive and Vif TR-FRET -6%.
CCc1ccccc1NC(=O)N1CCCc2ccccc21 was read as UCH37 inh 5.5, MLL AF4-AF9 inh 2.0, HNF4A DNA FP -3.1, RanGTP-Impb inh 2.2, Ecoli growth 0.71 and FGF22 binding inactive.
Screening COc1ccc(C2C(C#N)=C(N)Oc3n[nH]c(C)c32)cc1Cn1nnc2ccccc21 (stereo not drawn) returned UCH37 inh 1.8, HNF4A DNA FP 6.2, Ecoli growth 0.71 and Vif TR-FRET 71%.
`O=C(CCN1C(=O)/C(=C/c2ccccc2Cl)SC1=S)Nc1cccnc1` gave UCH37 inh 5.9, MLL AF4-AF9 inh 1.5, HNF4A DNA FP 2.4, RanGTP-Impb inh -6.1, Ecoli growth 0.7, FGF22 binding inactive and Vif TR-FRET -1%.
For Cc1onc(-c2ccccc2Cl)c1C(=O)NC(=S)Nc1ccccc1F the results were UCH37 inh 3.3, MLL AF4-AF9 inh 2.1, HNF4A DNA FP -0.4, RanGTP-Impb inh -0.6, Ecoli growth 0.67, FGF22 binding inactive and Vif TR-FRET 4%.
Screening OC1COC(c2ccccc2)OC1C(O)C1OC(c2ccccc2)OCC1O (stereo not drawn) returned UCH37 inh 0.0, MLL AF4-AF9 inh 2.4, HNF4A DNA FP -5.3, Ecoli growth 0.69, FGF22 binding inactive and Vif TR-FRET 1%.
CCOc1ccccc1NC(=O)Nc1cccc(C(C)=O)c1 was read as UCH37 inh 0.5, HNF4A DNA FP 0.2, RanGTP-Impb inh 1.2, Ecoli growth 0.68 and Vif TR-FRET 2%.
Cc1ccccc1NC(=O)c1cccc2c1C(=O)N(C1CCCCC1)C2 was read as UCH37 inh 0.9, MLL AF4-AF9 inh -1.2, HNF4A DNA FP -2.6, RanGTP-Impb inh -0.1, Ecoli growth 0.68 and FGF22 binding inactive.
For CC(=O)N1CCc2ccc(S(=O)(=O)N3CCc4ccccc43)cc21 the results were UCH37 inh 0.9, MLL AF4-AF9 inh -2.6, HNF4A DNA FP -6.0, RanGTP-Impb inh 0.2, Ecoli growth 0.62, FGF22 binding inactive and Vif TR-FRET -2%.
For CCOC(=O)c1c(C)n(CCNC(C)=O)c2ccc(O)cc12 the results were UCH37 inh 1.2, HNF4A DNA FP -0.1, RanGTP-Impb inh 2.9, Ecoli growth 0.69 and Vif TR-FRET 10%.
Screening O=C1c2ccccc2C(=O)N1CCCCSc1nnc(-c2ccc(OC(F)F)cc2)o1 returned UCH37 inh 1.5, HNF4A DNA FP 1.1, RanGTP-Impb inh 2.6, Ecoli growth 0.69 and Vif TR-FRET -7%.
Screening CCN(CC(=O)NC1CCS(=O)(=O)C1)S(=O)(=O)c1ccc(C)c(C)c1 (stereo not drawn) returned UCH37 inh 1.9, HNF4A DNA FP 0.7, RanGTP-Impb inh 2.5, Ecoli growth 0.69 and Vif TR-FRET -2%.
For COc1ccc(N2CCN(C(=O)CSc3nnc4c(C)cc5c(C)cc(C)cc5n34)CC2)cc1 the results were UCH37 inh -1.3, HNF4A DNA FP 5.6, RanGTP-Impb inh inconclusive, Ecoli growth 0.72 and Vif TR-FRET 11%.
Screening O=C(Nc1ccccc1)N(CCCN1CCOCC1)Cc1cccs1 returned UCH37 inh 6.0, MLL AF4-AF9 inh 1.4, HNF4A DNA FP -3.9, RanGTP-Impb inh 5.5, Ecoli growth 0.73, FGF22 binding inactive and Vif TR-FRET 4%.
COc1ccccc1C(=O)Nc1ccnn1C1CCN(C(C)CSC)CC1 (stereo not drawn) was read as UCH37 inh 3.4, MLL AF4-AF9 inh -1.2, HNF4A DNA FP -6.6, RanGTP-Impb inh 23*, Ecoli growth 0.66 and FGF22 binding inactive.
O=c1c2ccccc2nc2c3ccccc3c(NCc3ccco3)nn12 was read as HNF4A DNA FP -8.7, RanGTP-Impb inh -2.0 and Vif TR-FRET 0%.
C=CCn1c(SCC(=O)Nc2ccccc2C)nc(O)cc1=O was read as UCH37 inh 3.9, MLL AF4-AF9 inh 0.1, HNF4A DNA FP 5.8, RanGTP-Impb inh 6.1, Ecoli growth 0.64 and FGF22 binding inactive.
`CCN(CC)C(=O)c1cccc(-c2csc(C(O)c3ccccc3)n2)c1` (stereo not drawn) gave MLL AF4-AF9 inh -1.4, HNF4A DNA FP 0.8 and FGF22 binding inactive.

Entries from the list above containing a CF3 group, in the order listed:
Screening Cc1cccc(NC2(C(F)(F)F)N=C3SCCN3C2=O)n1 (stereo not drawn) returned UCH37 inh 1.4, HNF4A DNA FP -1.7, RanGTP-Impb inh -0.4, Ecoli growth 0.72 and Vif TR-FRET 2%.
For Cn1cc(NC(=O)OCc2ccc(Cl)cc2)c(C(F)(F)F)n1 the results were UCH37 inh 2.1, MLL AF4-AF9 inh -1.5, HNF4A DNA FP -1.7, RanGTP-Impb inh -2.0, Ecoli growth 0.61 and FGF22 binding inactive.
